FGF22 binding: binders of recombinant human FGF22 by thermal shift. SYPRO orange fluorescence; percent of sucrose octasulfate shift, DMSO zero. calls only at 9.99 µM. Q9HCT0. 340,000 tested, 1.5% active. AID 651658;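 active = melting point raised past a set limit in the mean and every replicate; three in four hits are not shown here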
Target sequence (Q9HCT0 whole entry, looked up): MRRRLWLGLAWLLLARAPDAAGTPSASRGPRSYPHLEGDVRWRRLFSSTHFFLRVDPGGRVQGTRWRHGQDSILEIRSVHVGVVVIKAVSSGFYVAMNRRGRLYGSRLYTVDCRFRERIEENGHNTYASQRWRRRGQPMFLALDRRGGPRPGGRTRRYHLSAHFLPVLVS
MLL AF4-AF9 inh: blocks AF4 peptide binding to human AF9 | AlphaScreen, biotin-AF4 peptide binding to FLAG-AF9 | inhibition, % at 10 µM | 350,000 tested, 0.47% active;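 active = every replicate reaching a set inhibition limit, whatever the replicate mean, cut at about 25% in these data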;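 note: 0% = plate neutral control median and 100% = total signal loss; the record names both 10 and 1 µM as test concentration; the first replicate is given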
Target sequence (P42568 whole entry, looked up): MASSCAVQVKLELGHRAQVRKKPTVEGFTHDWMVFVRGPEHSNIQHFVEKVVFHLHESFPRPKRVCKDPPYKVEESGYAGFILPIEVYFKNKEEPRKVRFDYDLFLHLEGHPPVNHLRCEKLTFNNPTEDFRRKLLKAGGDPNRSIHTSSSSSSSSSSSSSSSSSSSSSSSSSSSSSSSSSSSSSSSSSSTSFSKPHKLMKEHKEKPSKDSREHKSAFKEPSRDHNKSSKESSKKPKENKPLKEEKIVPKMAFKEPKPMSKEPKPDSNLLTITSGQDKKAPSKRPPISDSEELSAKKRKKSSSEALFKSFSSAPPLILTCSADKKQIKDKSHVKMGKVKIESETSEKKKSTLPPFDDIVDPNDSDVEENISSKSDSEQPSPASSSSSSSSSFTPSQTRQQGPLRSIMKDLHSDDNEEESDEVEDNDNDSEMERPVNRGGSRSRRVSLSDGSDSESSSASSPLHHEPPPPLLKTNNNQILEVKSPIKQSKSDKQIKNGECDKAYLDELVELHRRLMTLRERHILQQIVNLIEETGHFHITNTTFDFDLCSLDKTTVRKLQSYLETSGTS
rRNA inh HTS: inhibits bacterial ribosomal RNA function over humanized ribosomes. E. coli WT GFP vs humanized-ribosome RFP mutants, fluorescence, 24 h; hits give low values; DMSO median 0, no signal -100. 350,000 tested, 1.6% active. GFP signal change (wild-type ribosome), % (no concentration beside the values);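 active = significant combined selectivity score with lowered wild-type GFP, culture density cut under 30%, mutant RFP and density less affected; inactive = any of these conditions unmet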; note: one replicate is shown; some compounds called inactive have numbers as strong as hits
rRNA inh HTS OD600: recorded beside rRNA inh HTS, whose call it bears; OD600 change, %; measured here: OD600 growth;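 optical density of the mix in the first replicate; 0 = DMSO median and -100 = no signal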
rRNA inh HTS RFP: recorded beside rRNA inh HTS, whose call it bears; RFP signal change, %; measured here: RFP humanized mutant strains;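 first replicate; 0 = DMSO median and -100 = no signal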
Active calls of the source: *; i = inactive; x = not tested or not shown; & = joins results of further samples.

item | Compound | FGF22 binding | MLL AF4-AF9 inh | rRNA inh HTS | rRNA inh HTS OD600 | rRNA inh HTS RFP
1 | C[C@@H]1CCCCO[C@H](CN(C)C(=O)Nc2ccc(C(F)(F)F)cc2)[C@@H](C)CN([C@@H](C)CO)C(=O)c2cc(NC(=O)c3ccccc3)ccc2O1 | i | -9.6 | 2 | -2 | -3.9
2 | CCCNC(=O)C[C@H]1CC[C@H]2[C@@H](COc3ccc(NC(=O)c4ccccc4)cc3C(=O)N2C)O1 | i | -2.2 | 2 | -8 | 1.3
3 | C[C@@H]1CN([C@@H](C)CO)S(=O)(=O)c2ccc(-c3ccc(F)cc3)cc2O[C@@H]1CN(C)C(=O)C1CCCCC1 | i | 0.7 | -4 | -6 | 3.1
4 | COCC#Cc1cnc2c(c1)C(=O)N([C@@H](C)CO)C[C@H](C)[C@H](CN(C)C(=O)Cc1cccnc1)O2 | i | -0.8 | 5 | 15 | -3.9
5 | C[C@@H]1CCCCO[C@H](CN(C)S(=O)(=O)c2ccccc2)[C@H](C)CN([C@H](C)CO)C(=O)c2cc(NS(=O)(=O)c3ccccc3)ccc2O1 | i | 2.9 | -3 | -2 | 1.6
6 | CCCc1cn(CC[C@H]2CC[C@H](NS(=O)(=O)c3ccccc3Cl)[C@H](CO)O2)nn1 | i | -0.7 | -3 | 5 | 0.0
7 | CC(=O)N1CCOc2ccc(S(=O)(=O)NC[C@H]3O[C@@H](n4cnc5c(N)ncnc54)[C@H](O)[C@@H]3O)cc21 | i | -4.1 | 3 | 12 | -3.7
8 | CCCCOCC1CN(CCCC)S(=O)(=O)c2c(Oc3ccc(OC)cc3)cccc2O1 (configuration not stated) | i | 0.9 | 13 | 9 | 1.1
9 | N#Cc1ccc(-c2nc3c4ccccc4ccn3c2CC2CCCCC2)cc1 | i | 0.5 | 9 | 16 | 2.2
10 | COc1cc(CN2CC3(CCN(S(=O)(=O)c4cccc(F)c4)CC3)c3c([nH]c4cc(OC)ccc34)[C@@H]2CO)cc(OC)c1 | i | -4.5 | 1 | -13 | 6.7
11 | CCC(=O)N1C[C@@H](C)[C@H](OC)CN(C)C(=O)c2ccc(NC(=O)c3ccccc3)cc2OC[C@H]1C | i | -1.4 | -2 | -6 | -0.9
12 | C[C@H](CO)N1C[C@H](C)[C@@H](CN(C)Cc2ccc(Oc3ccccc3)cc2)Oc2c(NC(=O)Nc3ccc4c(c3)OCO4)cccc2C1=O | i | 3.4 | 0 | 6 | -0.8
13 | COc1ccc(CN(C)C[C@@H]2Oc3c(NC(=O)Nc4ccc(F)cc4)cccc3C(=O)N([C@H](C)CO)C[C@H]2C)cc1 | i | 4.9 | -9 | -14 | -0.8
14 | CO[C@H]1CN(C)C(=O)c2cc(NC(=O)C3CC3)ccc2OC[C@H](C)N(C(=O)c2cccnc2)C[C@@H]1C | i | -9.4 | 1 | -1 | 3.6
15 | COc1ccc(S(=O)(=O)N(C)C[C@@H]2OCCCC[C@H](C)Oc3ccc(NC(=O)CCCN(C)C)cc3C(=O)N([C@H](C)CO)C[C@@H]2C)cc1 | i | 2.7 | 1 | 2 | -1.5
16 | O=C(C1CCCCC1)N1C[C@@H](O)[C@H](n2cc(-c3ccc(F)cc3)nn2)C[C@@H]1c1ccc(Cl)cc1 | i | -2.1 | -2 | -30 | 0.6
17 | C[C@H](CO)N1C[C@H](C)[C@@H](CN(C)C(=O)NC2CCCCC2)Oc2c(NC(=O)Nc3cccc4ccccc34)cccc2C1=O | i | 7.8 | 1 | 7 | -2.1
18 | COCC#Cc1cnc2c(c1)C(=O)N([C@@H](C)CO)C[C@H](C)[C@H](CN(C)C(=O)Cc1ccccc1)O2 | i | -2.4 | -2 | -3 | -3.8
19 | C[C@H]1CN([C@@H](C)CO)C(=O)c2cccc(NC(=O)Nc3ccc4c(c3)OCO4)c2O[C@H]1CN(C)S(=O)(=O)c1ccc(F)cc1 | i | 12 | -4 | -12 | 2.8
20 | N#C[C@@H]1[C@@H](c2ccccc2-c2cccc(F)c2)[C@@H](CO)N1C(=O)CN1CCOCC1 | i | -0.7 | 3 | 7 | 2.2
21 | COc1ccc2c3c(n(C)c2c1)[C@H](CO)N(C(=O)c1cccc(F)c1)CC31CCN(C(=O)c2cccc(F)c2)CC1 | i | 0.3 | -4 | -2 | 5.8
22 | CS(=O)(=O)N1C[C@@H](O)COC[C@H]2O[C@@H](CC(=O)NC3Cc4ccccc4C3)CC[C@@H]21 | i | -0.9 | -3 | -3 | -2.0
23 | C[C@H](CO)N1C[C@H](C)[C@H](CN(C)C(=O)Nc2ccccc2)Oc2cc(-c3cccc(C(=O)N(C)C)c3)ccc2S1(=O)=O | i | -9.7 | -2 | 12 | -1.5
24 | C[C@H]1CN([C@@H](C)CO)C(=O)c2cc(NS(=O)(=O)c3ccc(F)cc3)ccc2O[C@H]1CN(C)C | i | -1.2 | -7 | -1 | -0.8
25 | C[C@H]1CN([C@@H](C)CO)C(=O)c2cc(-c3cncnc3)cnc2O[C@@H]1CN(C)Cc1ccncc1 | i | 0.7 | 0 | 9 | -4.1
26 | CCOC(=O)c1sc(NC(=O)C(CC)Sc2nnc3c4ccccc4n(C(C)C)c3n2)nc1C (configuration not stated) | i | 1.8 | 3 | -2 | -0.9
27 | N#C[C@H]1[C@H](c2ccccc2)[C@@H](CO)N1C(=O)c1cccnc1 | i | -1.7 | 3 | 19 | -5.0
28 | C[C@H](O)[C@@H]1C(=O)N2CCc3ccc(N4CCN(C)CC4)cc3[C@@H]2C[C@@H]1N(C)C(=O)NC1CCCCC1 | i | 0.8 | -1 | 2 | -1.2
29 | C[C@@H]1CN([C@H](C)CO)S(=O)(=O)c2ccc(C#Cc3ccncc3)cc2O[C@@H]1CN(C)C(=O)C1CCCCC1 | i | 1.4 | -2 | -8 | 4.2
30 | COc1ccc(NC(=O)Nc2ccc3c(c2)C(=O)N([C@@H](C)CO)C[C@@H](C)[C@@H](CN(C)C)OCCCC[C@H](C)O3)cc1 | i | 4.8 | 2 | 5 | 0.5

Some values from above.
entry 27 in rRNA inh HTS RFP: -5.0
entry 6 in rRNA inh HTS RFP: 0.0
entry 30 in rRNA inh HTS OD600: 5
entry 16 in rRNA inh HTS: -2

Further results follow:
item | Compound | FGF22 binding | MLL AF4-AF9 inh | rRNA inh HTS | rRNA inh HTS OD600 | rRNA inh HTS RFP
31 | O=C(C[C@@H]1C[C@H]2c3cc(NC(=O)CC4CC4)ccc3O[C@H]2[C@@H](CO)O1)NCCc1ccccc1 | i | -1.8 | 3 | -3 | -2.3
32 | COC(=O)N(C)C[C@H]1OCc2cnnn2CCCC(=O)N([C@@H](C)CO)C[C@@H]1C | i | -3.1&-0.4 | 3&1 | 19&-1 | 6.6&0.6
33 | COC(=O)[C@]1(Cc2ccccc2)N[C@H](c2ccc(-c3cccc(Cl)c3)c(OC)c2)[C@@H]2C(=O)N(C)C(=O)[C@@H]21 | i | -13 | 11 | 8 | 14
34 | C/C=C/c1cnc2c(c1)C(=O)N([C@@H](C)CO)C[C@H](C)[C@H](CN(C)Cc1cccc(C(=O)O)c1)O2 | i | -2.8 | 0 | 3 | -1.7
35 | CCC(=O)N1[C@@H]2c3ccc(-c4ccccc4F)c(=O)n3C[C@@H]2[C@@H](CO)[C@@H]1C(=O)OC | i | 1.2 | 2 | 1 | 0.8
36 | COc1ccc(CN2C[C@@H](O)COC[C@H]3O[C@H](CC(=O)NCc4ccncn4)CC[C@@H]32)cc1 | i | -1.6 | -3 | 0 | 3.2
37 | C[C@H](CO)N1C[C@H](C)[C@H](CN(C)C(=O)C2CCOCC2)Oc2ncc(C#CC(C)(C)O)cc2C1=O | i | -1.9 | 3 | 4 | -3.8
38 | CC(=O)N(C)C[C@H]1Oc2ncc(C#Cc3ccccc3F)cc2C(=O)N([C@@H](C)CO)C[C@H]1C | i | 0.8 | -1 | 5 | 0.4
39 | CC(=O)Nc1cc(-c2ccncc2)cn2c(-c3ccccc3)cnc12 | i | 3.0 | -1 | -1 | -1.8
40 | C[C@H](CO)N1C[C@H](C)[C@@H](CN(C)C(=O)Nc2ccc(F)cc2)Oc2ncc(-c3ccc(F)cc3)cc2C1=O | i | -0.1&-1.7 | 4&-1 | -1&4 | -0.7&0.7
41 | COc1ccc2c3c([nH]c2c1)[C@@H](CO)N(C(=O)CN1CCOCC1)CC31CCN(C(C)=O)CC1 | i | -1.1 | 6 | 8 | 1.2
42 | COc1ccc(NC(=O)Nc2cccc3c2O[C@@H](CN(C)S(C)(=O)=O)[C@H](C)CN([C@@H](C)CO)C3=O)cc1 | i | -3.3 | -1 | 1 | -0.8
43 | COc1ccc(NC(=O)N(C)C[C@@H]2Oc3ccc(N(C)C)cc3C(=O)N([C@H](C)CO)C[C@H]2C)cc1 | i | 0.7 | 1 | 2 | 1.2
44 | CN1C(=O)c2cc(NC(=O)Cc3ccccc3)ccc2OC[C@@H]2O[C@@H](CC(=O)NC3CCC3)CC[C@H]21 | i | -0.7 | 1 | -5 | 0.2
45 | C[C@H]1CN([C@@H](C)CO)C(=O)c2cc(NC(=O)NC3CCCCC3)ccc2O[C@@H]1CN(C)S(=O)(=O)c1cccs1 | i | -1.1 | -5 | -4 | -2.5
46 | CN(C)C(=O)CCc1ccc2c3c([nH]c2c1)[C@]1(CCc2ccccc2)[C@@H](C(=O)N2CCCCC2)C[C@H](CC(=O)NCc2ccco2)C(=O)N1CC3 | i | 3.6 | -3 | -19 | -2.0
47 | CCc1ccc(NC(=O)COC(=O)Cn2cnc3ccccc32)cc1 | i | 1.5 | 2 | 5 | -0.6
48 | Cc1ccc(S(=O)(=O)N(C)C[C@H]2Oc3ccc(NS(=O)(=O)c4cccs4)cc3CC(=O)N([C@@H](C)CO)C[C@H]2C)cc1 | i | 0.1 | -1 | -13 | -0.9
49 | COc1ccc(S(=O)(=O)N[C@H]2CC[C@@H](CC(=O)O)O[C@@H]2CO)cc1 | i | 0.0 | -1 | -9 | 0.4
50 | CC(C)C(=O)Nc1ccc2c(c1)C(=O)N(C)[C@@H]1CC[C@@H](CC(=O)NCCCN(C)C)O[C@@H]1CO2 | i | -14 | 3 | 7 | -2.1
51 | COc1ccc(S(=O)(=O)Nc2ccc3c(c2)C(=O)N([C@H](C)CO)C[C@H](C)[C@H](CN(C)C(=O)NC(C)C)OCCCC[C@@H](C)O3)cc1 | i | -0.2 | 0 | 4 | -3.0
52 | Cc1ccc(S(=O)(=O)N2[C@@H](c3ccc(C(C)(C)C)cc3)C(C(=O)O)=CC[C@H]2c2cccs2)cc1 | i | -6.1 | -17 | -42 | -3.8
53 | COc1cc(O)c(C=Nc2ccccc2NS(=O)(=O)c2ccc(C)cc2)c(OC)c1 | i | 0.1 | 3 | 11 | -0.9
54 | CN(C)CC(=O)N1[C@H](C#N)[C@@H](c2ccc(/C=C/c3ccccc3)cc2)[C@H]1CO | i | 4.8 | 3 | 5 | -4.3
55 | CC(C)(C)n1nnnc1C(c1ccccc1)N1CCN(CCN2CCOCC2)CC1 (configuration not stated) | i | -2.9 | 21 | 16 | 0.1
56 | CCCCOCCCNC(=O)C[C@@H]1C[C@@]2(C(=O)OC)CCCCC=C2N(Cc2ccc(Cl)cc2Cl)C1=O | i | -2.0 | 19 | 8 | 4.4
57 | COc1ccc(S(=O)(=O)Nc2ccc3c(c2)C(=O)N([C@@H](C)CO)C[C@H](C)[C@H](CN(C)C)OCCCC[C@@H](C)O3)cc1 | i | -1.0 | 2 | -6 | 2.6
58 | Cc1cccc(C)c1NC(=O)CN1CCN(C(=O)CN2C(=O)NC3(CCCCC3C)C2=O)CC1 (configuration not stated) | i | -4.9 | -2 | -3 | -2.4
59 | CC(=O)N1[C@H](CO)[C@@H](c2ccccc2)C12CN(C(=O)c1ccccc1)C2 | i | 0.2 | 3 | 14 | -3.0
60 | O=C(C[C@H]1CC[C@H]2[C@@H](COC[C@H](O)CN2Cc2ccccc2)O1)NCc1ccccc1Cl | i | -0.5 | -8 | -5 | -0.9

An excerpt of these results, with values ahead of the structure:
cpd	FGF22 binding	MLL AF4-AF9 inh	rRNA inh HTS	rRNA inh HTS OD600	rRNA inh HTS RFP	Molecule
38	i	0.8	-1	5	0.4	CC(=O)N(C)C[C@H]1Oc2ncc(C#Cc3ccccc3F)cc2C(=O)N([C@@H](C)CO)C[C@H]1C
39	i	3.0	-1	-1	-1.8	CC(=O)Nc1cc(-c2ccncc2)cn2c(-c3ccccc3)cnc12

Down the list, as entered above:
rRNA inh HTS, nos. 48–54 → -1, -1, 3, 0, -17, 3, 3
rRNA inh HTS OD600, nos. 48–54 → -13, -9, 7, 4, -42, 11, 5
rRNA inh HTS RFP, nos. 48–54 → -0.9, 0.4, -2.1, -3.0, -3.8, -0.9, -4.3

The list continues.
item | Compound | FGF22 binding | MLL AF4-AF9 inh | rRNA inh HTS | rRNA inh HTS OD600 | rRNA inh HTS RFP
61 | CO[C@H]1CN(C)C(=O)c2ccc(NC(=O)NC(C)C)cc2OC[C@H](C)N(C)C[C@H]1C | i | 0.3 | -2 | -7 | -2.2
62 | C[C@H](O)C#Cc1cnc2c(c1)C(=O)N([C@@H](C)CO)C[C@H](C)[C@@H](CN(C)C(=O)Nc1ccc(F)cc1)O2 | i | -2.0 | 2 | 15 | -3.6
63 | COc1cc2[nH]c(O)c(C=O)c2cc1OC | i | -1.8 | -2 | 6 | -3.9
64 | CCOC(=O)C1=CC[C@@H](c2cccc(Br)c2)N(S(=O)(=O)c2ccc(F)cc2)[C@H]1c1cccc(Cl)c1 | x | -3.2 | 4 | 11 | 2.8

High-throughput results from PubChem BioAssay.

These rows are one share of the data, so the mix of outcomes need not match the whole.
